Bioassay records: PubChem, Sanford-Burnham Center for Chemical Genomics
MT1-MMP reporter – inhibitors of MT1-MMP promoter transcription, cell-based, luciferase reporter, luminescence (AID 618); MT1-MMP promoter luciferase reporter cells, luminescence; calls from a first round at 10 µM; hits with a dose series show EC50 in µM; hit rate 0.62% among 87,000;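 active means over half of the reporter light lost at 10 µM or EC50 under 50 µM; inactive means the rest and hits that failed the dose series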;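 further: actives suppress MT1-MMP promoter-driven transcription so potencies describe inhibitors; HT1080 fibrosarcoma cells; overnight exposure; toxic or luciferase-blocking compounds were not removed from the actives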
* hit, by the source's call; i = inactive. This is a subset; rates above refer to the full screens.

SMILES	MT1-MMP reporter
COC(=O)[C@@]1(Cc2ccccc2)[C@H]2c3cc(C(=O)N(C)C)n(Cc4ccc(S(C)(=O)=O)cc4)c3C[C@H]2CN1C(=O)c1ccccc1	i
N#CC1(c2ccccc2)CCCN1C(=O)c1ccccc1Br (configuration not stated)	i
N/C(COc1ccc(F)cc1)=N\NC(=O)c1cccnc1Oc1ccccc1	i
CC1(C(=O)NCCc2c[nH]c3ccccc23)C=CC2(CCCCC2)N1C(=O)c1ccccc1 (configuration not stated)	i
O=C(CSc1ccc(Cl)cc1)NCC1CCCO1 (configuration not stated)	i
COc1ccc(OC)c(N(CC(=O)Nc2cccnc2)S(=O)(=O)c2ccc(C)cc2)c1	i
COCC(=O)Nc1ccc(C(C)C)cc1	i
OC(CN1CCN(c2ccccc2)CC1)Cn1c2ccccc2c2ccccc21 (configuration not stated)	i
COc1ccc(S(=O)(=O)N(C)CC(=O)N2CCN(Cc3ccccc3)CC2)cc1C	i
CCOCC(=O)Nc1ccc(C)c(Cl)c1	i
CCN1CN=C(NS(=O)(=O)c2ccc(C)cc2)NC1	i
COc1ccc(C(=O)CCC(=O)O)c(C)c1	i
Cc1n[nH]c(C)c1CCCOc1ccccc1	i
CCN(CC)CCCNC(=O)C1c2cc(OC)c(OC)cc2C(=O)N(C)C1c1cccs1 (configuration not stated)	i
Cc1cccnc1NC(=S)NC(=O)/C=C/c1ccco1	i
COc1ccc(-c2cc(-c3ccccc3)c(C#N)c(S(C)(=O)=O)n2)cc1	i
C=C(CC1([C@@H](NP(=O)(c2ccccc2)c2ccccc2)[C@H]2C[C@@H]2CCCC)CC1)c1ccccc1	i
O=C1c2ccccc2C(=O)c2c1oc(C(F)(F)F)c2C(=O)c1ccccc1	i
Cc1[nH]n(-c2ccccc2)c(=O)c1/C=N/n1c(C)nc2ccccc2c1=O	i
CC(C)CCNC(=O)NC(=O)Cn1cc(C(F)(F)F)ccc1=O	i
CCNC(=O)c1oc2c(c1C)C(=O)CC(C)(C)C2	i
COc1cc(NS(=O)(=O)c2ccc(NC(=S)NC(=O)C(C)(C)C)cc2)nc(OC)n1	i
COC(=O)[C@@]1(Cc2ccc(OC)cc2)[C@H]2c3cc(C(=O)N4CCCC4)n(C[C@H](O)CO)c3C[C@H]2CN1C(=O)c1ccccc1	i
COC(=O)c1ccc(C23CC4(C2)[C@H](CN(CC2CCCCC2)[C@@H]4c2ccccc2)C3c2ccc(Cl)nc2)cc1 (some centres not stated)	i
C#CCCCC(=O)Nc1ccccc1	i
CCC1=C2CC[C@H]3C(=O)N(C)C(=O)[C@H]3[C@H]2[C@@]2(C)C(=NCc3ccccc3)OC(=O)N2C1=O	i
CCOC(=O)C1=C(C)N(CCC(=O)O)C(=O)NC1c1ccccc1Cl (configuration not stated)	i
CC(C)CC(NC(=O)C1CCCCC1)C(=O)N1CCN(c2ccccn2)CC1 (configuration not stated)	i
CCOC(=O)c1cc(C)sc1NC(=O)CCC(=O)O	i
CCOc1ccc(NC(=O)Nc2nnc(CC)s2)cc1	i
CCOc1cc(C(=O)Nc2cccc3ncccc23)cc(OCC)c1OCC	i
CC(=O)Nc1c(C(=O)N2CCOCC2)cnn1-c1ccc(C)c(C)c1	i
COC(=O)c1ccccc1OCCOc1ccccc1C(=O)OC	i
CCCS(=O)(=O)c1c(S(=O)(=O)CCC)c2c(C)cccn2c1C(=O)OC	i
C=CCNC(=O)c1cc(Cl)ccc1Cl	i
N#CC(c1ccccc1)c1ccc(C(=O)c2ccc(F)cc2)cc1 (configuration not stated)	i
O=C(CCN1CCOCC1)c1ccccc1	i
C=CCNC(=O)C12CC3(C)CC(C)(CC(C)(C3)C1)C2	i
CCCOc1ccc(C(=O)NC(C)C(=O)O)cc1 (configuration not stated)	i
Cc1ccc(C(=O)CC2(O)C(=O)Nc3ccccc32)s1 (configuration not stated)	i
CN1CCN(S(=O)(=O)c2ccc(NC(=O)C(C)(C)C)cc2)CC1	i
COC(=O)c1sccc1NC(=O)CSc1nnnn1-c1ccccc1C	i
CCOC(=O)CSC1=C(C#N)C(c2sccc2C)C(C(C)=O)=C(C)N1 (configuration not stated)	i
Cc1cc(C)cc(OC(=O)CS(=O)c2ccc(C(F)(F)F)cc2[N+](=O)[O-])c1 (configuration not stated)	i
CC(Nc1nc(N2CCCCC2)nc2ccccc12)c1ccccc1 (configuration not stated)	i
COC(=O)[C@@]1(Cc2ccc(F)cc2)[C@H]2c3cc(C(=O)N(C)C)n(Cc4ccc(C(F)(F)F)nc4)c3C[C@H]2CN1C(=O)c1ccccc1	i
CCOC(=O)c1cn2nc(-c3ccc(OCC)cc3)cc2nc1C1CCN(C(=O)OC(C)(C)C)CC1	i
CCCC[C@@H]1C[C@H]1C(NC(=O)c1cccs1)c1ccc(C(F)(F)F)cc1 (some centres not stated)	i
CCOC(=O)c1ccc(NC(=O)COc2ccc(S(=O)(=O)NC(C)CC)cc2)cc1 (configuration not stated)	i
O=C(c1cc2ccccc2oc1=O)N(Cc1ccccc1)C1CCS(=O)(=O)C1 (configuration not stated)	i
Cc1ccc(S(=O)(=O)CC(N)=O)cc1	i
CCSc1ccccc1C(=O)NCc1ccc(OC)cc1	i
CCc1ccc(NC(=O)CCc2nc3cccnc3n2Cc2ccc(OC)cc2)cc1	i
CCCCOC(=O)Cn1c(=O)n(CC(=O)OCCCC)c2ccccc21	i
CCC(=O)N1CCN(c2ccc(NC(=O)c3cccs3)cc2)CC1	i
c1ccc(C2[C@H]3CN(CC4CCCCC4)[C@H](c4ccccc4)C34CC2(c2ccccc2)C4)cc1 (some centres not stated)	i
COc1ccc(N2CCC(CNC(=O)Nc3ccccc3)C2)cc1 (configuration not stated)	i
Cc1ccc(C)c(S(=O)(=O)NCc2ccncc2)c1	i
CC1CCN(c2nc(-c3ccccc3O)nc3ccccc23)CC1	i
NC(=O)NCc1ccccc1	i
(list continues)
SMILES	MT1-MMP reporter
CC1=CCC2C(=O)N(c3ccc(C(=O)N4CCCCCC4)cc3)C(=O)C2C1 (configuration not stated)	i
COc1ccc(CCNC2CC(=O)N(C)C2=O)cc1OC (configuration not stated)	i
O=C1C2C3C=CC(C3)C2C(=O)N1Cc1ccc(CN2C(=O)C3C4C=CC(C4)C3C2=O)cc1 (configuration not stated)	i
O=C(CSc1nc2ccccc2c(=O)n1NC(=O)c1ccccc1)c1ccc(Cl)cc1	i
CC(C)n1cc(-c2ccc(Cl)cc2)cc(C#N)c1=O	i
COC(=O)c1cc(NC(=O)CC2NC3CCCCC3NC2=O)cc(C(=O)OC)c1 (configuration not stated)	i
COc1cc(NC(=O)CCc2nc(-c3cccs3)no2)cc(OC)c1OC	i
O=C(O)c1cc(C(F)(F)F)nc2c(C(F)(F)F)cccc12	i
COc1ccc(Cl)cc1NC(=O)C(=O)NC1CCCCCC1	i
CC(=O)c1ccc(N(C)C)cc1	i
c1ccc2c(N3CCCCCC3)nc(-c3ccncc3)nc2c1	i
CCCS(=O)(=O)N1CCN(CC2CC=CCC2)CC1 (configuration not stated)	i
CCc1c2c(nc3ccccc13)OC(C)C2 (configuration not stated)	i
CCCC1CCc2c(sc(NC(=O)c3cccs3)c2C(N)=O)C1 (configuration not stated)	i
Cc1cccc(NC(=O)CCOc2ccccc2)c1	i
CNC(=O)C1(CC(C)C)C=CCN1C(C)=O (configuration not stated)	i
COC(=O)[C@@H]1C[C@@]2(O)[C@H](O)[C@H](O)[C@H](O)C[C@H]2N1Cc1c(F)cccc1Cl	i
COC(=O)[C@@]1(Cc2ccc(F)cc2)[C@H]2c3cc(C(=O)N4CCCC4)n(CCF)c3C[C@H]2CN1C(=O)c1ccccc1	i
COC(=O)c1cccc(C23CC4(C2)[C@H](CN(Cc2ccc(-c5ccccc5)cc2)[C@@H]4c2ccccc2)C3c2ccccc2)c1 (some centres not stated)	i
CCCCN(C)/C=N/c1c(C#N)cnn1-c1ccc(C)cc1	i
CCn1c(C(=O)N2CCc3ccccc3C2)cc2oc3ccccc3c21	i
C[C@@H](C(=O)Nc1ccc2ccccc2c1)[C@@H]1C[C@@]1(C)[C@@H](NS(=O)(=O)c1ccc(-c2ccccc2)cc1)c1ccccc1	i
COc1cc2c3c(c1)-c1c(sn(-c4cc(OC)ccc4OC)c1=S)C(C)(C)N3C(=O)C2=O	i
CC1CCN(C(=S)NC(=O)c2ccccc2)CC1	i
COC(=O)CCCCCN1C(=O)NC(CC2CC2)C(C(=O)OCc2ccccc2)=C1C (configuration not stated)	i
CCOC(=O)C1=C(COc2ccccc2)NC(=O)NC1c1ccc(Br)cc1 (configuration not stated)	i
CCCn1c2ccccc2c2nnc(SCC(=O)Nc3cc(C)on3)nc21	i
Cc1ccc(CNC(=O)CCCC(=O)O)cc1	i
COC(=O)[C@@]1(Cc2ccc(F)cc2)[C@H]2c3cc(C(=O)N4CCCC4)n(Cc4ccc(C)o4)c3C[C@H]2CN1C(=O)c1ccccc1	i
CCOc1cc2[nH]c(=S)n(CCC(=O)N3CCc4ccccc4C3)c(=O)c2cc1OCC	i
Cc1ccc(NC(=O)NC2C(NC(=O)Nc3ccc(C)cc3)N(C)C(=O)N2C)cc1 (configuration not stated)	i
NCC#CC(CCc1ccccc1)OCc1ccccc1 (configuration not stated)	i
CC1(C)N=C(SCC(=O)Nc2ccc(Cl)cc2)C(c2ccc(Cl)cc2)=N1	i
COC(=O)c1sccc1NC(=O)c1ccc(C)o1	i
O=C(C#Cc1cccc([N+](=O)[O-])c1)c1ccccc1	i
CC1(C)CC(=O)C2=C(C1)N(Cc1cccnc1)C(=O)C2(NC(=O)c1cccnc1)C(F)(F)F (configuration not stated)	i
N#CCSCC(=O)Nc1ccc(Cl)cc1	i
CCc1ccc(NC(=O)CSc2nc3cc(C(=O)OC)ccc3c(=O)n2CC2CCCO2)cc1 (configuration not stated)	i
CC(C)OC1=C(OC(C)C)C(O)(C#CCN(C(=O)/C=C/c2ccccc2)C(C)(C)C)C1=O (configuration not stated)	i
CCOC(=O)c1c(NC(=O)CC)sc(C(=O)N2CCCCC2)c1C	i
COC(=O)c1ccc(CN2[C@H](C(=O)OC)C[C@@]3(O)[C@H](O)[C@H](O)[C@H](O)C[C@@H]23)cc1	i
CCCCCn1c(SCC(=O)OCC)nc2cc(C(=O)N3CCC(C(N)=O)CC3)ccc2c1=O	i
COCCNC(=O)c1ccc2c(=O)n(Cc3ccco3)c(SCC(=O)NC3CCCCC3)nc2c1	i
COC(=O)[C@@]1(Cc2ccc(OC)cc2)[C@H]2c3cc(C(=O)N4CCCC4)n(Cc4cc(F)c(F)c(F)c4)c3C[C@H]2CN1C(=O)c1ccccc1	i
O=C(CCCN1C(=O)CCC1=O)Nc1ccccc1F	i
CCOC(=O)C1=C(Cn2cnc3ccccc32)NC(=O)NC1c1ccc(OC)cc1 (configuration not stated)	i
COC(=O)[C@@]1(Cc2ccccc2)[C@H]2c3cc(C(=O)N4CCCC4)n(Cc4ccc(C)o4)c3C[C@H]2CN1C(=O)c1ccccc1	i
CC(=O)N(Cc1ccc(F)cc1)C1=C(NCCc2ccccc2)C(=O)c2ccccc2C1=O	12µM*
Cc1ccc(OCCN2CCN(c3ncnc4sc(C)c(C)c34)CC2)cc1	i
COc1ccc(CCNC(=O)c2c(C)cc(=O)oc2C)cc1OC	i
CC(=O)COc1ccc2c(C)c(C)c(=O)oc2c1	i
COC(=O)Cc1c(C)c2ccc(OC(=O)c3ccccc3)cc2oc1=O	i
COc1ccc(C(=O)Nn2c(SCC(=O)NC3CCCC3)nc3ccccc3c2=O)cc1	i
CCOC(=O)c1ccccc1NC(=O)COc1cc(=O)n(CC)c2ccccc12	i
Cc1ccc(CNC(=O)[C@H]2C[C@@H]2[C@H](NP(=O)(c2ccccc2)c2ccccc2)c2ccccc2)c(F)c1F	i
CCC1=C(OC(=O)N(CC)CC)N2C(=O)OC(=NCCOC)[C@]2(Cc2ccccc2)[C@H]2C1=CC[C@H]1C(=O)N(CC(=O)OC)C(=O)[C@H]12	i

By substructure: the entries above containing an aryl methoxy group (18)
SMILES	MT1-MMP reporter
COc1ccc(OC)c(N(CC(=O)Nc2cccnc2)S(=O)(=O)c2ccc(C)cc2)c1	i
COc1ccc(S(=O)(=O)N(C)CC(=O)N2CCN(Cc3ccccc3)CC2)cc1C	i
COc1ccc(C(=O)CCC(=O)O)c(C)c1	i
CCN(CC)CCCNC(=O)C1c2cc(OC)c(OC)cc2C(=O)N(C)C1c1cccs1 (configuration not stated)	i
COc1ccc(-c2cc(-c3ccccc3)c(C#N)c(S(C)(=O)=O)n2)cc1	i
COc1cc(NS(=O)(=O)c2ccc(NC(=S)NC(=O)C(C)(C)C)cc2)nc(OC)n1	i
COC(=O)[C@@]1(Cc2ccc(OC)cc2)[C@H]2c3cc(C(=O)N4CCCC4)n(C[C@H](O)CO)c3C[C@H]2CN1C(=O)c1ccccc1	i
CCSc1ccccc1C(=O)NCc1ccc(OC)cc1	i
CCc1ccc(NC(=O)CCc2nc3cccnc3n2Cc2ccc(OC)cc2)cc1	i
COc1ccc(N2CCC(CNC(=O)Nc3ccccc3)C2)cc1 (configuration not stated)	i
COc1ccc(CCNC2CC(=O)N(C)C2=O)cc1OC (configuration not stated)	i
COc1cc(NC(=O)CCc2nc(-c3cccs3)no2)cc(OC)c1OC	i
COc1ccc(Cl)cc1NC(=O)C(=O)NC1CCCCCC1	i
COc1cc2c3c(c1)-c1c(sn(-c4cc(OC)ccc4OC)c1=S)C(C)(C)N3C(=O)C2=O	i
COC(=O)[C@@]1(Cc2ccc(OC)cc2)[C@H]2c3cc(C(=O)N4CCCC4)n(Cc4cc(F)c(F)c(F)c4)c3C[C@H]2CN1C(=O)c1ccccc1	i
CCOC(=O)C1=C(Cn2cnc3ccccc32)NC(=O)NC1c1ccc(OC)cc1 (configuration not stated)	i
COc1ccc(CCNC(=O)c2c(C)cc(=O)oc2C)cc1OC	i
COc1ccc(C(=O)Nn2c(SCC(=O)NC3CCCC3)nc3ccccc3c2=O)cc1	i
